NPYLR7 agonist: agonists of mosquito NPYLR7 receptor, primary screen, cell-based, Aedes aegypti, calcium fluorescence, mosquito biting behavior | 0.15% of 270,000 active | activation, % at 10 µM | HEK293T NPYLR7/Galpha15, GCaMP6s calcium fluorescence; in the data active means activation above about 40%;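 further: 0% = vehicle and 100% = reference agonist at the receptor; some compounds past the cut are filed as inactive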
NPYLR7 agonist max-min: also measured in NPYLR7 agonist; calls as there; activation, %; measured here: Max-Min RFU normalised activation; some inactives read as strong as hits;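 span of the calcium signal over five minutes; 0% = vehicle and 100% = native peptide agonist; compound fluorescence can raise it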
The depositor's hits bear a star; & = joins results of further samples. This is a subset; the hit share may differ from the screen's.

Each structure is followed by: NPYLR7 agonist, NPYLR7 agonist max-min
Cc1ccccc1-n1c(SCC(=O)N2CCCC2)nnc1-c1ccc(F)cc1
→ 5.9, 15.4
O=C(C1CCCN1S(=O)(=O)c1cccs1)N1CCN(c2nc3c(F)cccc3s2)CC1 (stereo unspecified)
→ 2.2, 0.7
CCCOCCCNC(=O)c1c(C)noc1-c1cc(OC)cc(OC)c1
→ 3.7, -0.2
C=CC[C@@H]1CC=C[C@@H](C)N1C(=O)Cn1[nH]c(=O)ccc1=O
→ 8.5, 4.5
CCC1=NOC(c2nc3sc(C(C)(C)C)cc3c(=O)[nH]2)C1 (stereo unspecified)
→ -22.3, -23.8
CC(=O)Nc1cccc(NC(=O)c2cn(C)c3c(=O)n(-c4ccc(C)cc4)c(=O)[nH]c23)c1
→ 6.8, 5.7
Cc1cc(OCC(=O)Nc2ccc(C)c(C)c2)nc(N2CCCC(C)C2)n1 (stereo unspecified)
→ -8.2, -9.8
COc1cccc(C(c2ccccn2)N(C)C(=O)C2CCN(CCCOc3ccccc3)CC2)c1 (stereo unspecified)
→ 10.2, -0.9
Cn1cccc1C=C1SC(=O)N(CC(=O)N2CCCCCC2)C1=O
→ -3.3, 7.2
Cc1ccc(S(=O)(=O)NCCOc2ccc(-c3ccco3)nn2)cc1
→ -4.5, -5.3
O=C(c1ccc(N2CCSCC2)nc1)N1CCCN(c2ncccn2)CC1
→ 1.1, -3.8
O=C(Nc1c(-c2ccc(Cl)cc2)nc2ccccn12)C(Cl)Cl
→ 6.1, 10.4
O=C(Cn1cc(-c2nnc(-c3ccco3)o2)c2ccccc21)N1CCOCC1
→ 2.6, 4.3
CCS(=O)(=O)Nc1cccc(N2CCC(N[C@H](C(=O)OC)c3ccccc3)CC2)c1
→ 20.4, 13.7
CCN(C(=O)c1cccc(NC(=O)C2CCOC2)c1)c1ccccc1 (stereo unspecified)
→ 0.1, -3.8
COc1ccc(NC(=O)C2COc3ccccc32)c(C)n1 (stereo unspecified)
→ 8.2, 323.6
CCCCCN(CC(=O)Nc1cc(-c2ccccc2)nn1-c1ccc(F)cc1)C(=O)c1cccc(Br)c1
→ -0.9, 5.2
Cc1nc(C)c(Cc2cccc(C(F)(F)F)c2)c(N2CCN(C(=O)COCc3ccccc3)CC2)n1
→ -22.7, -21.4
O=C(CCCc1nnc2c(=O)n(-c3ccc(Cl)cc3)ccn12)N1CCN(c2ccc(F)cc2)CC1
→ -0.1, -4.3
CCc1nc(-c2c(-c3ccccc3)ncn2Cc2cnc(C)cn2)c(C)[nH]1
→ 5.9, 2.7
COCCN(Cc1cc(NC(=O)NC(C)(C)C)ccc1N(C)C)C(=O)CC(C)(C)C
→ 9.2, 21.4
CN1CCN([C@@H]2[C@H](O)[C@H](CO)O[C@@H]2CNC(=O)N2CCOCC2)CC1
→ -8.4, -15.9
CC(=O)Nc1ccc(-n2c(CCC(=O)N3CCCN(C=O)CC3)ccc2-c2ccc(F)cc2)cc1
→ -1.7, -5.3
COc1ccc(CCNC(=O)c2ccccc2N2CCC(NC(=O)Cc3cccs3)CC2)cc1
→ 16.9, 10.6
COc1ccccc1NC(=O)C1=C(C)NC(=O)NC1c1ccccc1F (stereo unspecified)
→ -5.3, -12.9
COc1ccc(C(=O)N(CC(=O)N2CCc3sccc3C2COc2ccc(Cl)c(C)c2)C(C)C)cc1 (stereo unspecified)
→ 16.5, 17.5
Cc1ccccc1C1(O)CCN(C(=O)CSc2nnc(N)s2)C1 (stereo unspecified)
→ -0.4, -3.2
CN(CCc1nc2ccc(Cl)cc2[nH]1)Cc1nc(-c2ccc3c(c2)OCO3)no1
→ 4.5, 1.6
COc1ccc(-c2cccc(-c3ccc(NC(=O)C4=COc5ccc(Cl)cc5C4)cc3)n2)cc1
→ 7.3, 6.9
O=S(=O)(Nc1cccc(S(=O)(=O)N2CCOCC2)c1)c1cccc(C(F)(F)F)c1
→ -1.6, 21.8
Fc1cccc(C2(c3nc(Cc4ccccc4)no3)CCOCC2)c1
→ -6.0, -7.3
O=C(NNC(=CC(=O)c1cccs1)C(F)(F)F)c1cccc(Br)c1
→ 7.5, 2.4
O=C1NC(=S)N/C1=C/c1ccc(C(F)(F)F)cc1
→ -8.2, -13.8
Cc1ccc(S(=O)(=O)CCc2ccncc2)cc1
→ 13.1, 4.6
COc1cccc(F)c1-c1ccc(C(C)NC(C)=O)cc1 (stereo unspecified)
→ 0.1, -4.6
Cc1cccc(C)c1OCC(O)CN1CCCN(S(=O)(=O)c2ccc(F)cc2)CC1 (stereo unspecified)
→ -3.9, -2.0
CSC(=O)NC12CC3CC(C1)CC(c1n[nH]c(CCc4ccccc4)n1)(C3)C2
→ 0.6, 0.3
COc1ccc(CC(=O)Nc2cccc(N3CCCS3(=O)=O)c2)cc1OC
→ -3.5, 3.8
COC(=O)C(C)(C)NC(=O)c1cnn(C)c1C
→ 0.8, 0.3
Cc1ccc(N=Nc2cc(C)ccc2NC(=O)C2CC2)cc1
→ -1.0, -1.7

Record cards, as listed above.
`COc1cccc(F)c1-c1ccc(C(C)NC(C)=O)cc1` (stereo unspecified) across the screens: NPYLR7 agonist: 0.1; NPYLR7 agonist max-min: -4.6
`O=C(c1ccc(N2CCSCC2)nc1)N1CCCN(c2ncccn2)CC1` across the screens: NPYLR7 agonist: 1.1; NPYLR7 agonist max-min: -3.8

Remaining list, next part.
Each structure is followed by: NPYLR7 agonist, NPYLR7 agonist max-min
CCc1cc2c(cc3c(=O)[nH]nc(CC)n32)s1
→ -2.1, -3.3
CCCCCC(=O)Nc1c(-c2ccc(F)c(F)c2)nc2ccccn12
→ -8.8, -2.3
COCCCNC(=O)C(C)NC1CCCN(c2cccnn2)C1 (stereo unspecified)
→ -3.8, -4.9
COC(=O)CCC(=O)NNC(=O)c1cccc([N+](=O)[O-])c1
→ 6.9, 0.1
Cc1ccc(CNC(=O)C(C)N(C)Cc2sccc2C)cc1 (stereo unspecified)
→ 9.6, 6.4
CCOC(=O)c1sc(-c2cccc(Br)c2)cc1N
→ -1.3, -5.1
OC(COCc1ccccc1)CN(Cc1ccco1)Cc1ccc(F)cc1F (stereo unspecified)
→ 12.1, 7.6
Cc1cc(I)ccc1N
→ 3.1, 10.1
Cc1[nH]n(-c2nc(-c3ccc(Br)cc3)cs2)c(=O)c1N=Nc1cccc(CO)c1
→ 28.9, 33.9
CNC(=O)c1ccccc1NC(=O)c1ccc(C)c(Br)c1
→ 3.3, 3.7

(more compounds)
Molecule | NPYLR7 agonist | NPYLR7 agonist max-min
CCc1cc(N(C)Cc2ccccc2)nc(SCc2ccc(C(=O)NCc3ccc4c(c3)OCO4)cc2)n1 | 3.2 | 15.0
CSc1nnc2c(n1)OC(c1c(C)nn(-c3ccccc3)c1Cl)Nc1ccccc1-2 (stereo unspecified) | -8.3 | -11.1
COc1ccc(CCc2nnc(CCC(=O)NC(C)(C)C)o2)cc1 | -1.7 | -5.0
OCCC1CN(Cc2cccc(-n3cccn3)c2)CCN1Cc1cccs1 (stereo unspecified) | 8.2 | 5.9
C/C(Nc1ccc(Cl)cc1Cl)=C1/CCOC1=O | 10.3 | 14.3
COc1cc2c(cc1OC)C1CN(C(=S)Nc3ccc4c(c3)OCO4)CC(=O)N1CC2 (stereo unspecified) | 21.5 | 9.3
CCC(C(=O)N1CCN(C(=O)CSc2nnc(-c3ccco3)n2-c2ccc(OC)cc2)CC1C)c1ccccc1 (stereo unspecified) | 23.9 | 27.0
Clc1ccccc1-c1nnc(SCc2ccccn2)n1-c1ccccc1Cl | 8.9 | 13.0
N#CC1(NC(=O)c2ccc(-c3nc(C4CC4)no3)cc2)CCSC1 (stereo unspecified) | 3.6 | -0.9
COc1ccc(/C=C2/C(=O)N(c3ccc([N+](=O)[O-])cc3)N=C2N2CCOCC2)cc1 | 5.8 | -3.1
COc1ccc(C(=O)N(C)c2nnc(C34CC5CC(CC(C5)C3)C4)s2)c(OC)c1 | -0.5 | -2.4
COc1cn(CC(=O)N2CCN(c3ccccc3)CC2)c(CO)cc1=O | 0.8 | -0.7
Cc1ccccc1OCc1nc(C(=O)NC2CC2)cs1 | 0.7 | 11.3
CN(C)CCc1c[nH]c2ccc(C[C@H]3COC(=O)N3)cc12 | -1.9&4.0 | -6.3&-13.9
Cc1c[nH]c(=O)n1-c1ccc(C(=O)OC(C)c2c(F)cccc2F)cc1 (stereo unspecified) | 0.6 | 2.8
Cc1nc2ccc(C(=O)NCCc3ccccn3)cn2c1N(C)C(=O)CCc1ccccc1 | 10.3 | 14.4
CCn1ccnc1CNC(=O)c1cc(Cn2ccc3ccccc32)[nH]n1 | 18.9 | 8.9
CCCCCCc1ccc(C(=O)N(C)CCc2ccc(OC)c(OC)c2)cc1 | -3.9 | -10.1
CCC1(C)NC(=O)N(CC(=O)Nc2nc3ccc(Cl)cc3s2)C1=O (stereo unspecified) | 9.3 | 10.2
CC1CCCN(CC(C)NC(=O)/C=C/c2cc3ccccc3o2)C1 (stereo unspecified) | -0.6 | -0.4
O=S(=O)(c1ccc(NC(=S)NC2CC2)cc1)N1CCOCC1 | 1.9 | 2.2
Clc1ccc(-c2cc(C3(CNc4ccc5c(c4)OCO5)CC3)ccn2)cc1 | 13.7 | 17.6
COc1ccc(S(=O)(=O)Oc2ccccc2CN(Cc2ccc(F)cc2)C(C)=O)cc1 | -11.7 | -6.6
Cc1cc(N2CCCCC2C)nc(SCc2cccc(C(=O)NCc3ccco3)c2)n1 (stereo unspecified) | 1.2 | 4.7
CC(C)CN1CCN(c2nc3c(c(=O)[nH]c(=O)n3C)n2Cc2ccc(Cl)c(Cl)c2)CC1 | -6.7 | -9.2
O=C(Nc1ccccc1)Nc1ccc2nc(Cc3ccccc3)nn2c1 | 10.1 | -0.7
CCc1ccc(N(CC(=O)N(C)C)S(C)(=O)=O)cc1 | 4.4 | 0.3
CCCCC(=O)Nc1cc(C)c2c(=O)oc3ccccc3c2n1 | 0.7 | -2.5
CN1CCN(c2onc(-c3ccc(F)cc3)c2CN(CC2CCCO2)C(=O)C2CCCC2)CC1 (stereo unspecified) | 5.3 | 4.1
Cc1nc2c(c(=O)n1C)CCN(C(=O)c1cn3ccsc3n1)CC2 | -14.6 | -17.3
CC(OC(=O)c1ncc(Cl)c(Cl)c1Cl)C(=O)C12CC3CC(CC(C3)C1)C2 (stereo unspecified) | 3.1 | -3.5
COc1ccc(CN(Cc2cccc(F)c2)C(=O)c2ccc3cccnc3n2)cc1 | 0.8 | -7.6
COc1ccc(S(=O)(=O)NCCc2nnc3ccc(SCc4cc(C)ccc4C)nn23)cc1 | 3.3 | -7.2
O=C(Nc1ccnn1C1CCN(CCC2CCOC2)CC1)c1ccccc1 (stereo unspecified) | 4.1 | 1.0
CC(C)(C)c1ccc(CN2CCN(c3cc(N)nc(N)n3)CC2)cc1 | 13.7 | 12.3
C#CC1(OCC(O)CNC(C)C)CCCCC1 (stereo unspecified) | -0.6 | 14.6
CCn1c(C2CCCNC2)nn(Cc2nc(-c3cccs3)oc2C)c1=O (stereo unspecified) | 17.5 | 5.7
CC(C)c1cccc(Nc2cc3[nH]c(-c4ccc(C(=O)N(C)C)cc4)cc3cn2)c1 | -15.4 | -15.6
Cc1ccc(Cn2cnc3c(cnn3CCNC(=O)c3ccc(S(=O)(=O)N(C)C)cc3)c2=O)cc1 | -4.7 | -9.0
CSc1nnc2c(n1)OC(c1ccccc1)Nc1ccccc1-2 (stereo unspecified) | 1.0 | -0.4
COc1ccc(OCCN2CCC(C(=O)NC(c3ccccc3)c3cnccn3)CC2)cc1 (stereo unspecified) | 0.9 | 7.8
CN1CCN(n2c3c(c(SCC(=O)NCc4ccccc4)nc2=O)CCC3)CC1 | -3.0 | -6.3
O=C(c1cccc(Br)c1)N1CCCC(NCc2ccccc2)C1 (stereo unspecified) | 4.1 | 2.0
Cc1cccc(-n2nc3c(c2NC(=O)c2ccc(S(=O)(=O)N(C)C)cc2)CSC3)c1 | -0.8 | -3.9
N#Cc1ccc(C(=O)Nc2ccc3[nH]cc(CCN4CCN(c5cccc(C(F)(F)F)c5)CC4)c3c2)cc1 | 5.4 | 4.9
Cc1nc(-c2nccn2C(C)Cc2cccnc2)co1 (stereo unspecified) | 12.7 | -2.7
COc1ccc(Cl)cc1C(=O)Nn1cnc2c(cnn2-c2ccc(C)cc2)c1=O | 11.7 | 4.1
COc1cccc(C2=C(C(C)=O)Sc3nnc(-c4ccc(Cl)cc4)n3N2C(C)=O)c1 | 11.6 | 8.4
CC(C)NC(=O)Nc1ccc(N(C)C)c(CN(C(=O)C2CC2)C(C)c2ccccc2)c1 (stereo unspecified) | -0.6 | 4.0
CC(C)Cc1cc(C(=O)N2CCn3cccc3C2c2ccccn2)no1 (stereo unspecified) | 10.1 | 7.7

Sorted by length of the SMILES (smallest number first): some entries from above.
Molecule | NPYLR7 agonist | NPYLR7 agonist max-min
Cc1nc(-c2nccn2C(C)Cc2cccnc2)co1 (stereo unspecified) | 12.7 | -2.7
CSc1nnc2c(n1)OC(c1ccccc1)Nc1ccccc1-2 (stereo unspecified) | 1.0 | -0.4
CN1CCN(n2c3c(c(SCC(=O)NCc4ccccc4)nc2=O)CCC3)CC1 | -3.0 | -6.3
COc1ccc(Cl)cc1C(=O)Nn1cnc2c(cnn2-c2ccc(C)cc2)c1=O | 11.7 | 4.1
CC(C)c1cccc(Nc2cc3[nH]c(-c4ccc(C(=O)N(C)C)cc4)cc3cn2)c1 | -15.4 | -15.6
N#Cc1ccc(C(=O)Nc2ccc3[nH]cc(CCN4CCN(c5cccc(C(F)(F)F)c5)CC4)c3c2)cc1 | 5.4 | 4.9

Assay outcomes as filed in PubChem BioAssay.
